# Sfp inh: inhibitors of Bacillus subtilis Sfp phosphopantetheinyl transferase; 310,000 tested, 3.5% active; Potency, µM, inactives show max response, negative = inhibition, most hits filed as inhibitors; AID 1490; Q9F4F7; Biochemical Sfp PPTase activity, qHTS; active = well fitted inhibition curve with a large enough effect; inconclusive = small, poorly fitted or top-dose-only effect, or another doubt; inactive = no such curve, though single readings can be large or run the other way;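 also: the enzyme is Sfp with the accession as filed and its product quenches rhodamine fluorescence; potency is read from the fitted curve at half-maximal effect; 0% = enzyme reaction without inhibitor and -100% = no enzyme wells; top concentration of the series not given in the record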
#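 Reaction rates are the 30-min fluorescence difference (ex 525, em 598 nm) in wells containing 15 nM Sfp, 5 uM rhodamine-CoA and 12.5 uM BHQ-2-YbbR at pH 7.6 with 10 mM MgCl2.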
# TRPML1 blocker: blocks the human TRPML1 channel | activity change, negative = inhibition, % (test concentration not listed) | 390,000 tested, 0.02% active | TRPML1-inducible cells, Ca2+ dye fluorescence, FDSS; active compounds read low; inhibition of EC80 agonist-evoked calcium signal | Q9GZU1; in the data active means activity change below about -50%; inconclusive means about -30% to -50%; inactive means above about -30%;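 also: stimulus is agonist 54-4 at its EC80 concentration; % is scaled to controls: 0 for no effect and ±100 for the full control effect; compound concentration not given in the record; the text of the record puts the active cut at -80%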
#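 TRPML1-DL cells, Tet-induced overnight (~16 h, 37 °C) at 1,500 cells/well, were loaded with Ca8 no-wash dye plus quencher for 45-90 min at room temperature. Compounds were pinned during FDSS kinetic reading; agonist 54-4 at EC80 (4 uM final) then added.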
# Menin-MLL FL inh: displaces fluorescein MLL peptide from human menin | FP activity change, % at 61.4 µM | 290,000 tested, under 10 active | Fluorescence polarization, fluorescein-MLL peptide displacement from menin; inconclusive = falling polarisation curve, or a change in total fluorescence; inactive = total fluorescence flat and polarisation flat or rising; no compound was filed as active; the % refers to the polarisation; negative = inhibition;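 also: % of control where 0% means no effect; inhibitors lower the polarisation; unlabelled MLL peptide was the positive control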
# TRPML1 agonist: human mucolipin-1 channel agonism; Q9GZU1; TRPML1-expressing cells, Ca2+ dye fluorescence, FDSS; host cell line not named in the record; reference of the full effect not given here; activation, % (no concentration beside the values); 410,000 tested, 0.12% active; AID 624414; in the data active = activation above about 50%; inconclusive = about 30% to 50%; inactive = below about 30%; also: 0% is about no effect; the text of the record puts the active cut at 80%
#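 Tet-induced TRPML1-DL cells, 1,500 per well, cultured overnight, were loaded with a no-wash Ca2+ dye for 45–90 min. Calcium fluorescence was recorded on the FDSS for 110 s after compound addition, before the EC80 agonist (4 uM 54-4) was added.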
# ClpP mod: qHTS Assay for Activators of ClpP | AID 651965, 2013 | 340,000 tested, 1.9% active | Potency, µM (titrated, usually from 57.5 µM), inactives show at the top dose activity change, negative = active | purified B. subtilis ClpP, FRET peptide cleavage, 20 min; active = well fitted falling curve with a large enough effect; inconclusive = small, poorly fitted or top-dose-only effect; inactive = no such curve, though single readings can be large or run the other way; also: potency is read from the fitted curve at half-maximal effect; the source files actives as falling curves though it sought activators and does not explain the sign; nearly all actives have a fitted effect of over 65% in size; many hits overshoot -100%
# Target sequence (P80244 whole entry, looked up): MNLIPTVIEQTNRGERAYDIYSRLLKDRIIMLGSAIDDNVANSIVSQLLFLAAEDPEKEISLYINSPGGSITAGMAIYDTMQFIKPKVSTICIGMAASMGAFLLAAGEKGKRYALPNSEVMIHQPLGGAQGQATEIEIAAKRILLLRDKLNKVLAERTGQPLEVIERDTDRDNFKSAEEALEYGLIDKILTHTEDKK
#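 ClpP 10 microg/mL final, pH 8 Tris/KCl buffer with BSA, glycerol, Tween-20; compound pinned in; FRET-FV substrate; RT 20 min; Ex320/Em430; ΔFRET vs ADEP 5.8 microM, DMSO, no enzyme.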
# TRPV1 PAM: human TRPV1 potentiation. Q8NER1. TRPV1-expressing cells, Fluo-8 calcium influx, capsaicin EC20 potentiation; host cell line not named in the record; control for the full effect not named in the record. potentiation, % at 8.33 µM. 320,000 tested, 0.02% active. AID 540277; active means potentiation above 80%; inconclusive means 30% to 80%; inactive means below 30%; also: 0% is about no effect
# Target sequence (Q8NER1 whole entry, looked up): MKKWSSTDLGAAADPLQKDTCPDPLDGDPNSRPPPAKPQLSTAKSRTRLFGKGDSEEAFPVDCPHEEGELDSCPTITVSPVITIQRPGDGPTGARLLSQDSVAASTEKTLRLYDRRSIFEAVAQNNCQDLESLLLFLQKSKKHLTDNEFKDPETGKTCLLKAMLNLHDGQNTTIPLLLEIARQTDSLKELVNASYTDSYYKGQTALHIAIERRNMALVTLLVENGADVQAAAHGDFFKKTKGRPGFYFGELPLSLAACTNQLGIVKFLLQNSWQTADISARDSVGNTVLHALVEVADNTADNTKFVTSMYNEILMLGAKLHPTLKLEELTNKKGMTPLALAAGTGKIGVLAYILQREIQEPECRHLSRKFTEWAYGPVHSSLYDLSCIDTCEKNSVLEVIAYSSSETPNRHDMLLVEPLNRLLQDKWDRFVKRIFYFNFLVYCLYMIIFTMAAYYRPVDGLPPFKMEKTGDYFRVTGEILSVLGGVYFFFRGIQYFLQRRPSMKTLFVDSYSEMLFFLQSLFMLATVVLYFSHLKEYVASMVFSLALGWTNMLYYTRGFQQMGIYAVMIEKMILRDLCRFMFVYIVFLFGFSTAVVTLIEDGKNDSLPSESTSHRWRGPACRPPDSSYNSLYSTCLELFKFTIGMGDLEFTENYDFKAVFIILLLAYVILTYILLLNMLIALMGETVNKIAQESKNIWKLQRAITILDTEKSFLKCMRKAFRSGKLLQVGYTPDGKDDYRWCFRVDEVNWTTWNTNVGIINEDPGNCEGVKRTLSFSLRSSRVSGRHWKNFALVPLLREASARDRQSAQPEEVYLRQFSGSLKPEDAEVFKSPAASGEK
#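 Cells expressing TRPV1 were dye-loaded with Fluo-8 and read kinetically: 10 s baseline, 3 min after compound (agonist portion), then 2 min after EC20 capsaicin (allosteric enhancer portion). Calcium-bound dye fluorescence at 480/520 nm.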
# PINK1 expr mod: changes PINK1 expression | PINK1 immunofluorescence, high-content cytometry, 24 h | Potency, µM (series often up to 76.6 µM), for the others: top-dose activation (PINK1 increase), hits mostly activators | 410,000 tested, 0.2% active; active = well fitted activation curve with a large enough effect; inconclusive = small, poorly fitted or top-dose-only effect; inactive = flat fitted curve, though single readings scatter; cell line not stated here;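 also: potency is read from the fitted curve at half-maximal effect; % of control where 0% means no effect; nearly all actives have a fitted effect of over 65% in size; a mitochondrial uncoupler was the plate control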
#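 Decision-based qHTS: stable cells, 24 h exposure to five compound concentrations, CCCP as control. Fixed cells stained for PINK1 plus nuclear, mitochondrial and cell markers, cytometer read.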
# The depositor's hits bear a star; ? = inconclusive; . = not tested or not shown; & = joins results of further samples; [ ] = another dose, or the depositor's remark.
Compound	Sfp inh	TRPML1 blocker	Menin-MLL FL inh	TRPML1 agonist	ClpP mod	TRPV1 PAM	PINK1 expr mod
C[C@@H]1CN([C@H](C)CO)C(=O)CCCn2cc(nn2)CO[C@H]1CN(C)C(=O)Nc1ccc(C(C)(C)C)cc1	.	.	.	-0.4	-0.7%	.	3.3%
CCOC1=C2[C@@H](CN(S(=O)(=O)c3ccc(C)cc3)[C@H]2c2cccc3ccccc23)[C@H]2C(=O)N(Cc3ccccc3)C(=O)[C@H]2C1	.	.	.	11	-12%	.	-0.4%
COc1cccc(N2C(=O)N(c3ccccc3Cl)C3CS(=O)(=O)CC32)c1 (configuration not stated)	7%	4	-0.1	-0.7	1.0%	2	-1.4%[38.3 µM]
O=C(COc1ccccc1-c1ccccc1)N/N=C/c1cccnc1	0%	13	0.2	1.5	2.8%	-6	7.7%
COc1ccccc1N1CN(S(=O)(=O)c2ccc(C)cc2)c2nc3ccccc3nc21	.	26	.	0.2	-24%	.	3.4%
Cc1ccc(S(=O)(=O)Nc2ccccc2C=Nc2cccc(C)c2C)cc1	-1%	16	0.4	0.2	-3.1%	-1	22%
O=C(Nc1ccc(N2CCCCC2)cc1)c1ccc([N+](=O)[O-])o1	7%	4	5.5	0.0	.	10	-0.7%
COc1ccccc1CNC(=O)[C@H](C)NC(=O)C1CCN(C(=O)[C@@H](N)C(C)C)CC1	6%	.	-7.8	.	1.7%	12	1.2%
O=C(C1CCCCC1)N1CCCc2ccccc21	8%	4	-1.0	-1.1	3.6%	-1	1.3%
CCOc1ccc(CCNC(=O)c2cnc(C)cn2)cc1OCC	15%	-8	.	-0.1	0.4%	10	1.1%
Cc1[nH]c2ccccc2c(=O)c1CN1CCCCC1	18%	-15	-0.6	-0.9	-1.9%	9	-1.0%
O=C1C2CCCN2C(c2ccccc2)N1c1ccc(F)cc1 (configuration not stated)	-5%	32	4.4	0.4	0.3%	.	1.1%
O=C(c1ccc(Cn2c(=O)[nH]c3ccccc3c2=O)cc1)N1CCN(c2ccccn2)CC1	3%	2	1.6	-1.0	-13%	5	-0.8%
c1ccc2[nH]c(SCc3cn4ccccc4n3)nc2c1	2%	16	-2.3	0.0	.	2	-0.2%
C=CCN(c1ccccc1)S(=O)(=O)c1cccc(C(=O)NCC(c2ccccc2OC)N2CCCC2)c1 (configuration not stated)	.	8	.	0.3	.	3	2.0%
COc1ccc(NC(=O)Cc2c[nH]c3ccccc23)cc1S(=O)(=O)N1CCOCC1	17%	11	-1.8	0.0	.	-10	-0.6%
CS(=O)(=O)N(CC(=O)N1CCN(Cc2ccccc2)CC1)c1ccc2c(c1)OCCO2	12%	-19	-1.8	3.2	-1.0%	4	2.7%[38.3 µM]
Cc1cccc(NC(=S)NC(C)C(c2ccccc2)N2CCN(C)CC2)c1C (configuration not stated)	5%	3	-0.9	2.0	.	14	0.3%
CCCc1nc(NCC2CCCO2)c2nnn(Cc3ccccc3)c2n1 (configuration not stated)	-4%	-4	0.3	-0.1	0.8%	-8	1.2%
O=C(O)COc1ccc(NC(=O)c2ccc3c(c2)C(=O)N(C2CCCCC2)C3=O)cc1	0%	5	.	0.0	-6.4%	-7	0.9%
C=C(CCC(=O)c1ccccc1)C(=O)c1ccccc1	-19%	30	5.6	1.0	-5.4%	-14	-3.8%
O=C(Nc1cnn(Cc2ccc(F)cc2)c1)c1cnccn1	-3%	18	0.2	-1.6	-1.6%	-20	-0.9%
COc1ccc(NC(=O)N(C2CCCCC2)C(C)c2cccnc2)c(OC)c1 (configuration not stated)	10%	-16	3.2	-0.7	-0.8%	-1	-0.6%
NC(=O)CCNC(=O)c1ccc(Cl)cc1	7%	8	4.0	0.0	0.3%	0	-1.2%
COc1ccc(CNC(=O)c2ccc3c(c2)nc2n3CCOC2)c(OC)c1	.	9	.	0.3	-1.4%	.	-0.3%
Cc1ccc(Oc2nc(CN3CCOCC3)nc3sc4c(c23)CCC(C)C4)cc1C (configuration not stated)	40µM*	14	-1.3	-1.6	-2.7%	-3	5.3%
COc1ccc(C2=NN(C(=O)CCC(=O)O)C(c3cccs3)C2)cc1OC (configuration not stated)	7%	-15	-4.9	1.3	.	11	0.6%
O=C(CCC(=O)N1CCSc2ccccc21)Nc1ccc(F)cc1	19%	-13	1.7	-0.2	2.1%	-20	1.4%
COCCN(C(=S)Nc1c(C)cc(C)cc1C)C(C)c1cccnc1 (configuration not stated)	11µM*	-3	0.0	0.6	-0.3%	-3	0.8%
CCOC(=O)c1ccc(NC(=O)c2c(C)oc3nc(C)nc(N4CCCC4)c23)cc1	.	13	.	0.5	3.6%	.	-7.5%
O=C(COC(=O)c1cccs1)NCC1CCCCC1	-3%	8	0.6	-0.6	.	-17	5.5%
O=C(CCNC(=O)c1ccc(Cl)cc1)NC1CCCCCC1	.	-13	.	-0.6	-0.4%	15	-1.5%
Cc1ccc(S(=O)(=O)N2CCN(S(=O)(=O)c3ccc4c(c3)OCCO4)CC2)cc1	5%	17	0.4	-0.2&0.1	0.3%&-5.4%	-9	-0.3%&1.1%
Cc1ccc2nc(NC(=O)C3CCCN3C(=O)OC(C)(C)C)sc2c1 (configuration not stated)	0%	-7	3.2	0.1	.	11	3.4%
Cc1ccccc1NC(=O)c1sc2nc3n(c(=O)c2c1C)N=C(c1ccccc1)CS3	.	-13	.	0.0	-3.8%	.	0.8%
Cc1ccoc1C(=O)Nc1ccc2ccccc2c1	3%	54	8.3	1.9	-0.4%	16	1.3%
COc1cccc(/C=C2\SC(=O)N(CCC(=O)NC3CCS(=O)(=O)C3)C2=O)c1 (configuration not stated)	9%	1	.	-0.3	-2.6%	11	-0.7%
O=C(C1=C[C@@H](c2ccc(Br)cc2)C[C@@H](OCCCCO)O1)N1CCN(Cc2ccc3c(c2)OCO3)CC1	-1%	24	3.8	-0.6	-1.2%	-5	9.0%
CCCCN1C(=O)c2[nH]nc(-c3ccccc3O)c2C1c1cc(Br)c(O)c(OC)c1 (configuration not stated)	.	26	.	0.7	-1.5%	.	0.8%
N#CC/C(N)=N/Nc1nc2ccccc2nc1Cc1ccccc1	-9%	-3	-5.0	-0.5	.	-15	2.3%
COc1ccc(CCNC(=O)C(=O)Nc2ccc3nc4n(c(=O)c3c2)CCCCC4)cc1OC	-1%	.	1.1	.	2.0%	-2	-0.2%
COc1ccccc1CN1CCCC(C(=O)N2CCCCC2)C1 (configuration not stated)	-8%	4	0.2	-0.3	.	-9	0.7%
CCOC(=O)C1[C@H]2C(=O)N(C(C)c3ccc(OC)cc3)C[C@]23C=C[C@H]1O3 (some centres not stated)	18%	-8	2.8	0.7	-5.8%	-4	0.7%[38.3 µM]
CCn1nccc1C(=O)Nc1ccc(S(=O)(=O)NC23CC4CC(CC(C4)C2)C3)cc1	-16%	-4	2.6	-0.1	-6.4%	-10	0.3%
CCOc1ccc(CCNC(=O)CSC(=S)N2CCCC2)cc1OCC	.	-6	.	1.6	0.3%	-21	4.2%
CCOC(=O)c1[nH]c(COC(=O)CCCOc2ccccc2)c(C(=O)OCC)c1C	15%	-3	1.6	-0.8	1.3%	-12	-0.2%
CCCO/N=C1/C(=O)N(c2ccccc2)c2ccccc21	-16%	2	3.1	1.6	.	-28	7.4%
O=C(CSc1nnnn1-c1ccc(F)cc1F)Nc1ccccc1F	-5%	-4	-3.2	-0.8	.	-6	11%
Cn1c(C(=O)O)c(S(=O)(=O)c2ccc(Cl)cc2)c2ccccc21	18%	15	8.0	-0.3	-4.4%	6	2.5%
NS(=O)(=O)c1ccc(NC(=O)CCCCCN2C(=O)c3ccccc3C2=O)cc1	.	-4	.	-0.3	2.7%	-4	-1.6%
NC(=O)NCCC1=CCCCC1	14%	-10	4.6	0.4	0.2%	-1	-1.0%
O=C(Nc1nnc(S(=O)(=O)N2CCCc3ccccc32)s1)c1ccc(Cl)cc1	.	19	.	-0.6	-6.1%	.	-1.2%
COc1cc(C(=O)NC(CCSC)C(=O)OCC(=O)NC(=O)C2CCCCC2)cc(OC)c1OC (configuration not stated)	5%	-16	2.1	1.4	-1.2%	3	0.8%
CCCOc1ccc(C2C(=O)N(C3CCCCCC3)CC(=O)N2CCCOCC)cc1OC (configuration not stated)	.	40	.	0.0	-0.1%	.	0.7%
COc1ccc2c(c1)c(CC(=O)Nc1cc(C)cc(C)c1)c(C)n2C(=O)c1ccc(Cl)cc1	.	-6	.	3.9	2.3%	.	4.0%
CC(CC(=O)NCc1ccc(Cl)cc1)CC1=NS(=O)(=O)c2ccccc2N1 (configuration not stated)	.	-9	.	1.3	-1.6%	.	1.5%
CC(=O)NCCSc1ccc(S(=O)(=O)N2CCCC2)cn1	.	3	.	-0.2	-2.0%	3	-0.6%
COc1ccc(NC(=O)CN(c2ccccc2C)S(C)(=O)=O)c(OC)c1	12%	-9	-6.4	1.2	-0.3%	2	-0.5%
O=C(Cc1ccc(F)cc1)N/N=C/c1ccc(-c2ccc(Cl)c(C(=O)O)c2)o1	28µM*	-18	-3.6	-0.2	-11%	5	-1.2%
OC(c1ccccc1)(c1ccccc1)c1nccc2ccccc12	.	46	.	1.9	-5.4%	.	5.3%

# Carrying on:
Compound	Sfp inh	TRPML1 blocker	Menin-MLL FL inh	TRPML1 agonist	ClpP mod	TRPV1 PAM	PINK1 expr mod
COc1cc2nc(Cl)nc(NC3CC3)c2cc1OC	.	.	.	-1.0	-8.7%	.	1.7%
O=[N+]([O-])c1cccc(-c2cn3nc(-c4ccccc4)c(-c4ccccc4)nc3n2)c1	11%	-5	?	0.5	-1.9%	9	3.3%
Cc1ccc(-n2nc(CO)c(C(=O)NCCCCc3ccccc3)n2)cc1C	.	15	.	3.3	25µM*	.	0.7%
CCOC(=O)C1=C(O)CSC1=Nc1ccc(C)cc1	10%	-2	6.8	1.4	.	-23	0.4%
O=C(O)C1C2CC2CN1C(=O)c1ccc(Cl)cc1Cl (configuration not stated)	7%	9	-3.3	-0.5	.	-29	1.6%

# Screening results: PubChem, National Center for Advancing Translational Sciences (NCATS)
